Compound activity: PubChem, Broad Institute
FGF22 binding – binders of recombinant human FGF22 by thermal shift; SYPRO orange fluorescence; percent of sucrose octasulfate shift, DMSO zero; Q9HCT0; actives 1.5% (n = 340,000); calls only at 9.99 µM; AID 651658;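 active means melting point raised past a set limit in the mean and every replicate; three in four hits are not shown here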
Target sequence (Q9HCT0 whole entry, looked up): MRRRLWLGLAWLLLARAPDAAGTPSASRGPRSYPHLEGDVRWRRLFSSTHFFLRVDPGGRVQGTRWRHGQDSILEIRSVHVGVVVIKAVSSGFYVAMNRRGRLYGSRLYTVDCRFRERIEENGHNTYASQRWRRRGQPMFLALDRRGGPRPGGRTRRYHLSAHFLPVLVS
rRNA inh HTS – inhibits bacterial ribosomal RNA function over humanized ribosomes | E. coli WT GFP vs humanized-ribosome RFP mutants, fluorescence, 24 h; stronger effect = lower value; DMSO median 0, no signal -100 | GFP signal change (wild-type ribosome), % (no concentration beside the values) | actives 1.6% (n = 350,000) | AID 720706;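 active means significant combined selectivity score with lowered wild-type GFP, culture density cut under 30%, mutant RFP and density less affected; inactive means any of these conditions unmet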; further: one replicate is shown; some compounds called inactive have numbers as strong as hits
rRNA inh HTS OD600 – further read-out of rRNA inh HTS, marked with its call; OD600 change, %; measured here: OD600 growth;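 optical density of the mix in the first replicate; 0 = DMSO median and -100 = no signal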
rRNA inh HTS RFP – further read-out of rRNA inh HTS, marked with its call; RFP signal change, %; measured here: RFP humanized mutant strains;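 first replicate; 0 = DMSO median and -100 = no signal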
Active calls of the source: *; i = inactive; + = active, no number. This is a subset (hit frequency here may not be typical).

SMILES	FGF22 binding	rRNA inh HTS	rRNA inh HTS OD600	rRNA inh HTS RFP
CCCN1[C@@H]2c3ccc(C4=CCCC4)c(=O)n3C[C@H]1[C@H](CO)[C@H]2C(=O)N(C)C	i	0	3	-0.6
N#C[C@H]1[C@@H](c2ccc(C3=CCCC3)cc2)[C@@H](CO)N1C(=O)NC1CCCC1	i	-7	8	-0.3
CC(C)NC(=O)Nc1ccc2c(c1)CC(=O)N([C@H](C)CO)C[C@@H](C)[C@H](CN(C)C(=O)Nc1cccc3ccccc13)O2	i	6	2	7.1
COc1ccc(NC(=O)Nc2ccc3c(c2)C(=O)N([C@H](C)CO)C[C@H](C)[C@@H](CN(C)CC2CCCCC2)OCCCC[C@@H](C)O3)cc1	i	7	7	-0.9
CCCN1C[C@@H](C)[C@H](OC)CN(C)C(=O)c2cc(NC(=O)Nc3ccccc3F)ccc2OC[C@H]1C	i	0	0	5.2
COc1ccc(NC(=O)N[C@H]2CC[C@@H](CCNC(=O)CN3CCOCC3)O[C@H]2CO)cc1	i	1	12	-0.7
COc1ccc(S(=O)(=O)N2C[C@H](O)COC[C@@H]3O[C@@H](CC(=O)N[C@H]4CCN(Cc5ccccc5)C4)CC[C@H]32)cc1	i	1	4	-1.9
O=C(Cc1ccccc1)N1C[C@H]2[C@@H](c3ccccc31)[C@@H](CO)N2C(=O)C1CC1	i	4	1	-1.1
CS(=O)(=O)Nc1ccc2c(c1)[C@H]1C[C@@H](CC(=O)NCCN3CCCCC3)O[C@H](CO)[C@H]1O2	i	0	6	1.5
COCC#Cc1cnc2c(c1)C(=O)N([C@@H](C)CO)C[C@H](C)[C@@H](CN(C)C)O2	i	2	7	-2.6
COCC(=O)N(C)C[C@H]1[C@H](c2ccccc2)[C@@H](CO)N1C(=O)NC(C)C	i	5	-1	-1.9
C[C@@H]1CN([C@H](C)CO)C(=O)c2cc(-c3cccc(F)c3)cnc2O[C@H]1CN(C)C(=O)c1cccc(F)c1	i	-6	-15	0.8
C[C@@H]1CN([C@@H](C)CO)C(=O)c2cc(C#Cc3ccccn3)cnc2O[C@@H]1CN(C)C(=O)c1ccccn1	i	8	14	-1.5
C[C@@H]1CN([C@@H](C)CO)C(=O)c2cc(/C=C/c3ccccc3)cnc2O[C@@H]1CN(C)S(=O)(=O)c1cccs1	i	-1	-8	5.1
CCCNC(=O)[C@H]1[C@H](CO)[C@H]2Cn3c(cccc3=O)[C@@H]1N2C(=O)C1CC1	i	-3	12	-5.5
C[C@@H]1CN([C@@H](C)CO)C(=O)c2cc(C#CC3(O)CCCC3)cnc2O[C@@H]1CN(C)C(=O)Cc1cccnc1	i	2	8	-1.9
COc1cccc(S(=O)(=O)N(C)C[C@@H]2Oc3cc(C4=CCCCC4)ccc3S(=O)(=O)N([C@@H](C)CO)C[C@@H]2C)c1	i	0	8	3.8
C[C@H](CO)N1C[C@H](C)[C@H](CN(C)Cc2ccc(Oc3ccccc3)cc2)Oc2ccc(NC(=O)C3CCCCC3)cc2CC1=O	i	0	-1	1.6
CCNC(=O)C[C@@H]1CC[C@@H]2[C@H](COc3ccc(NC(=O)Nc4cccc(Cl)c4)cc3C(=O)N2C)O1	i	-2	-16	1.4
COc1cccc(-c2cnc3c(c2)C(=O)N([C@H](C)CO)C[C@H](C)[C@H](CN(C)C(=O)Nc2ccc4c(c2)OCO4)O3)c1	i	0	-8	2.1
Cc1ccc(S(=O)(=O)Nc2ccc3c(c2)C(=O)N([C@@H](C)CO)C[C@H](C)[C@@H](CN(C)Cc2ccncc2)OCCCC[C@@H](C)O3)cc1	i	-2	-7	0.4
COc1ccc(S(=O)(=O)Nc2ccc3c(c2)CC(=O)N([C@@H](C)CO)C[C@H](C)[C@H](CN(C)C(=O)NC(C)C)O3)cc1	i	2	7	-1.1
O=C(C[C@@H]1CC[C@@H]2[C@H](COC[C@H](O)CN2Cc2ccc3c(c2)OCO3)O1)N1CCOCC1	i	3	8	-0.3
O=C(C[C@@H]1CC[C@@H](NC(=O)C2CCC2)[C@H](CO)O1)NCc1ccccc1Cl	i	3	5	-0.9
O=S(=O)(c1ccccc1)N1CC[C@@H]2[C@H]1c1cc(C#Cc3cccc(F)c3)ccc1N[C@@H]2CO	i	-2	20	-0.3

Quoted at random: two compounds from above.
SMILES	FGF22 binding	rRNA inh HTS	rRNA inh HTS OD600	rRNA inh HTS RFP
O=C(Cc1ccccc1)N1C[C@H]2[C@@H](c3ccccc31)[C@@H](CO)N2C(=O)C1CC1	i	4	1	-1.1
COCC(=O)N(C)C[C@H]1[C@H](c2ccccc2)[C@@H](CO)N1C(=O)NC(C)C	i	5	-1	-1.9

An excerpt from above in order of number of heavy atoms, lowest first:
SMILES	FGF22 binding	rRNA inh HTS	rRNA inh HTS OD600	rRNA inh HTS RFP
CCCNC(=O)[C@H]1[C@H](CO)[C@H]2Cn3c(cccc3=O)[C@@H]1N2C(=O)C1CC1	i	-3	12	-5.5
O=C(Cc1ccccc1)N1C[C@H]2[C@@H](c3ccccc31)[C@@H](CO)N2C(=O)C1CC1	i	4	1	-1.1
CCCN1C[C@@H](C)[C@H](OC)CN(C)C(=O)c2cc(NC(=O)Nc3ccccc3F)ccc2OC[C@H]1C	i	0	0	5.2
C[C@@H]1CN([C@@H](C)CO)C(=O)c2cc(/C=C/c3ccccc3)cnc2O[C@@H]1CN(C)S(=O)(=O)c1cccs1	i	-1	-8	5.1
COc1ccc(S(=O)(=O)N2C[C@H](O)COC[C@@H]3O[C@@H](CC(=O)N[C@H]4CCN(Cc5ccccc5)C4)CC[C@H]32)cc1	i	1	4	-1.9

Additional results.
SMILES	FGF22 binding	rRNA inh HTS	rRNA inh HTS OD600	rRNA inh HTS RFP
C[C@H]1CN([C@@H](C)CO)C(=O)c2cc(NS(=O)(=O)c3ccc(F)cc3)ccc2O[C@@H]1CN(C)C(=O)Nc1cccc2ccccc12	i	1	6	2.5
C[C@@H]1CN([C@@H](C)CO)C(=O)c2cc(-c3ccccc3)cnc2O[C@@H]1CN(C)C(=O)C1CCOCC1	i	2	1	-2.3
CO[C@H]1CN(C)C(=O)c2cc(NC(=O)c3ccc(F)cc3)ccc2OC[C@@H](C)N(C(C)=O)C[C@@H]1C	i	2	-1	-3.0
Cc1ccc(NC(=O)Nc2ccc3c(c2)C(=O)N(C)[C@H]2CC[C@@H](CC(=O)O)O[C@@H]2CO3)cc1	i	2	8	-1.0
CO[C@H]1CN(C)C(=O)c2cc(NC(=O)Nc3ccccc3)ccc2OC[C@@H](C)NC[C@@H]1C	i	0	-5	-0.1
CCCNC(=O)N(C)C[C@H]1Oc2cc(C#CC(C)C)ccc2S(=O)(=O)N([C@@H](C)CO)C[C@H]1C	i	-9	-4	-2.3
C[C@@H]1CN([C@H](C)CO)C(=O)Cc2cc(NC(=O)Nc3ccc4c(c3)OCO4)ccc2O[C@H]1CN(C)Cc1ccc(Oc2ccccc2)cc1	i	1	14	-2.8
CCCNC(=O)N1CC2(C1)CN(C(=O)CC)[C@H](CO)c1[nH]c3cc(OC)ccc3c12	i	4	8	-2.6
COc1ccc(NC(=O)Nc2ccc3c(c2)C(=O)N([C@@H](C)CO)C[C@H](C)[C@H](CN(C)C(=O)C2CCCCC2)OCCCC[C@@H](C)O3)cc1	i	0	1	1.6
C[C@H](CO)N1C[C@H](C)[C@H](CN(C)C(=O)Nc2cccc3ccccc23)Oc2ccc(NC(=O)Nc3ccc(F)cc3)cc2CC1=O	i	-3	4	1.1
CC(C)CC#Cc1cnc2c(c1)C(=O)N([C@H](C)CO)C[C@@H](C)[C@H](CN(C)C(=O)Nc1ccccc1F)O2	i	-2	-2	3.0
COCC(=O)N1C[C@@H](C)[C@H](OC)CN(C)C(=O)c2ccc(NC(=O)c3ccccc3)cc2OC[C@@H]1C	i	2	1	1.4
C[C@@H]1CN([C@H](C)CO)C(=O)c2cc(NC(=O)C3CC3)ccc2O[C@H]1CN(C)C(=O)Nc1cccc2ccccc12	i	2	0	-1.7
CO[C@H]1CN(C)C(=O)c2ccc(NS(=O)(=O)c3cn(C)cn3)cc2OC[C@H](C)N(CCC(F)(F)F)C[C@@H]1C	i	-1	-3	-0.2
C[C@@H]1CN([C@@H](C)CO)S(=O)(=O)c2ccc(C#C[C@@H](C)O)cc2O[C@@H]1CN(C)C(=O)CC1CC1	i	3	11	-3.0
COc1ccc(S(=O)(=O)N(C)C[C@@H]2Oc3ccc(NS(C)(=O)=O)cc3C(=O)N([C@H](C)CO)C[C@@H]2C)cc1	i	1	2	-0.9
C[C@H](NC(=O)C[C@H]1C[C@H]2c3cc(NC(=O)NC4CCCCC4)ccc3O[C@H]2[C@H](CO)O1)c1ccccc1	i	1	7	-5.3
C[C@H](CO)N1C[C@H](C)[C@@H](CN(C)C(=O)Nc2ccc3c(c2)OCO3)OCCCC[C@H](C)Oc2ccc(NS(=O)(=O)c3cn(C)cn3)cc2C1=O	i	2	7	2.5
CC(=O)N(C)C[C@H]1Oc2cc(-c3ccccc3F)ccc2S(=O)(=O)N([C@H](C)CO)C[C@@H]1C	i	-6	-2	1.9
C[C@@H]1CCCCO[C@@H](CN(C)CC2CCCCC2)[C@H](C)CN([C@H](C)CO)C(=O)c2cc(NC(=O)Nc3cccc4ccccc34)ccc2O1	+	-4	-19	14
CCCNC(=O)[C@H]1[C@H](CO)[C@H]2Cn3c(cccc3=O)[C@@H]1N2C(=O)C1CCCC1	i	0	1	-1.7
C[C@H](CO)N1C[C@H](C)[C@@H](CN(C)Cc2ccccc2)OCCCC[C@H](C)Oc2ccc(NS(=O)(=O)c3cccs3)cc2C1=O	i	3	-1	1.5
C[C@@H]1CN([C@H](C)CO)C(=O)c2cc(NC(=O)Nc3cccc4ccccc34)ccc2O[C@H]1CN(C)S(=O)(=O)c1cn(C)cn1	i	-8	-6	1.5
CC(C)NC(=O)Nc1ccc2c(c1)C(=O)N([C@@H](C)CO)C[C@H](C)[C@@H](CN(C)Cc1ccc(-c3ccccc3)cc1)O2	i	1	-4	0.8
CCCCOCC1CN(CCCC)S(=O)(=O)c2c(Oc3ccc(C(C)C)cc3)cccc2O1 (stereo not drawn)	i	-1	-22	-0.6

Further records follow:
SMILES	FGF22 binding	rRNA inh HTS	rRNA inh HTS OD600	rRNA inh HTS RFP
Cc1cccc(-c2ccc([C@H]3[C@@H](CO)N4CCCCN(S(=O)(=O)c5cccc(C)c5)C[C@H]34)cc2)c1	i	-33	-26	23
CC(C)CC#Cc1cnc2c(c1)C(=O)N([C@H](C)CO)C[C@H](C)[C@@H](CN(C)C(=O)Nc1cc(F)ccc1F)O2	i	-3	-2	5.3
O=C(C[C@@H]1C=C[C@@H](NS(=O)(=O)c2ccccc2)[C@@H](CO)O1)NCc1ccc(Cl)c(Cl)c1	i	3	1	-1.0
CCCNC(=O)N(C)C[C@@H]1Oc2ncc(C#CCC3CCCC3)cc2C(=O)N([C@@H](C)CO)C[C@H]1C	i	8	-7	4.8
COc1ccc(S(=O)(=O)Nc2ccc3c(c2)C(=O)N([C@@H](C)CO)C[C@H](C)[C@H](CN(C)C(=O)NC(C)C)OCCCC[C@@H](C)O3)cc1	i	3	5	0.3
CC(C)NC(=O)N(C)C[C@H]1Oc2ccc(NS(=O)(=O)c3cn(C)cn3)cc2CC(=O)N([C@@H](C)CO)C[C@H]1C	i	2	5	1.0
COc1ccc(S(=O)(=O)Nc2ccc3c(c2)C(=O)N([C@H](C)CO)C[C@@H](C)[C@@H](CN(C)Cc2ccc(C(=O)O)cc2)OCCCC[C@@H](C)O3)cc1	i	2	0	-1.5
COc1ccc(NC(=O)Nc2ccc3c(c2)[C@@H]2C[C@H](CC(=O)N4CCCCC4)O[C@H](CO)[C@@H]2O3)cc1	i	0	-7	-0.7
COc1ccc2c3c([nH]c2c1)[C@@H](CO)N(C(=O)Nc1ccc(F)cc1)CC31CCN(C(=O)c2ccccn2)CC1	i	-3	2	2.4
CNC[C@@H]1Oc2ccc(NC(=O)Cc3ccccc3)cc2CC(=O)N([C@H](C)CO)C[C@H]1C	i	1	5	-0.8
CN(C)CC(=O)Nc1ccc2c(c1)[C@@H]1C[C@@H](CC(=O)NCc3ccccc3F)O[C@H](CO)[C@@H]1O2	i	0	-15	1.7
O=C(C[C@@H]1C=C[C@H](NC(=O)Nc2cc(F)ccc2F)[C@H](CO)O1)NCc1ccccn1	i	1	-1	-1.8
O=C(C1CCOCC1)N1CC(=O)N2[C@@H](CO)[C@H](c3ccc(/C=C/c4ccccc4)cc3)[C@@H]2C1	i	4	0	0.2
CO[C@@H]1CN(C)C(=O)c2ccc(NC(=O)Nc3ccccc3)cc2OC[C@H](C)N(C(C)=O)C[C@@H]1C	i	-3	-8	3.1
O=C(C1CCOCC1)N1C[C@@H]2[C@H](c3ccccc31)[C@@H](CO)N2Cc1ccccc1F	i	2	-8	-0.9
CC(C)NC(=O)N(C)C[C@H]1Oc2cc(C#CC(C)(C)O)ccc2S(=O)(=O)N([C@H](C)CO)C[C@@H]1C	i	2	2	-5.4
C[C@@H]1CN([C@@H](C)CO)C(=O)Cc2cc(NC(=O)Nc3ccc4c(c3)OCO4)ccc2O[C@@H]1CN(C)S(=O)(=O)c1ccc(Cl)cc1	i	6	3	0.3
CCCC(=O)Nc1ccc2c(c1)C(=O)N(C)C[C@H](OC)[C@@H](C)CN(Cc1ccccc1F)[C@@H](C)CO2	i	-8	-25	-0.6
O=C(C[C@@H]1CC[C@H]2[C@@H](COC[C@@H](O)CN2Cc2cccc(Cl)c2)O1)NCc1cccc(F)c1	i	-4	-5	3.9
